High-throughput results from PubChem BioAssay.
PABP FP inh – PABP-poly(A) binding inhibition | AID 2014 | PABP-poly(A) RNA binding, fluorescence polarization | inhibition, % at 35 µM | 1% of 290,000 active | P11940;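 active means 50% or more with normal probe brightness, or confirmed in later tests; inconclusive means above 50% with abnormal brightness, or retests that disagree; inactive means below 50% or failed in later tests; about a fifth of its hits are not listed in these tables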;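 further: calls also rest on retests at 20 µM and on dose response follow-up; controls were probe without protein and protein plus probe with vehicle; some compounds called inactive have numbers as strong as hits; many hits fall short of the cut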
Target sequence (P11940 whole entry, looked up): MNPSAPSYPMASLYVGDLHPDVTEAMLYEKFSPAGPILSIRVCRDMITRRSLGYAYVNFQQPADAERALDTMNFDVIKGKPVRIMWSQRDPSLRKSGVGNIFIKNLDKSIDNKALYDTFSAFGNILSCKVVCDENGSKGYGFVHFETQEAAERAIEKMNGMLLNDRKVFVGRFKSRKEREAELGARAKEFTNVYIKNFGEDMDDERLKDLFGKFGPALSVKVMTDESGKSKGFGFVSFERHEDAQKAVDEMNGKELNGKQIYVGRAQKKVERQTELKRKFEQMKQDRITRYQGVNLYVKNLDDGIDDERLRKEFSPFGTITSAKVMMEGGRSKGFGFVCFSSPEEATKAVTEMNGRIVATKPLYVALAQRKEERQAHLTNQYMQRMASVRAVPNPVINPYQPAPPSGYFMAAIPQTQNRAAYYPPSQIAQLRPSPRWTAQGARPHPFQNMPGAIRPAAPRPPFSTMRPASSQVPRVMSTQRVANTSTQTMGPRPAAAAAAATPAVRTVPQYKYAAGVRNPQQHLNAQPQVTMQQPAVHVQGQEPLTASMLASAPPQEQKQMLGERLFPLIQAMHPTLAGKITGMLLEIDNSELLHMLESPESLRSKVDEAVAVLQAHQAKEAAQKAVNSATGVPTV
eIF4H FP inh – inhibitors of RNA binding by human eIF4H; 0.94% of 290,000 active; inhibition, % at 35 µM; eIF4H fluorescence polarization binding assay;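 active means 50% or more with normal probe brightness, or confirmed in later tests; inconclusive means above 50% with abnormal brightness, or retests that disagree; inactive means below 50% or failed in later tests; about a fifth of its hits are not listed in these tables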;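 further: calls also rest on retests at 20 µM and on dose response follow-up; 0% = protein and probe with vehicle and 100% = probe without protein; strong numbers were not always called active; many hits fall short of the cut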
Yeast UUG start – yeast start codon fidelity modulation. 0.13% of 350,000 active. activity score, % at 18.7 µM. AID 602363. S. cerevisiae UUG-firefly luciferase reporter, luminescence/redox ratio;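 active means replicate mean at a twofold rise or more, about +100% in these data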;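 further: firefly luciferase made from a UUG start codon reports start codon fidelity; reporter light over untreated wells divided by growth signal over untreated wells; some hits fall short of that in this replicate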
Rce1 inh – yeast Ras-converting enzyme inhibition. Q03530. yeast membranes, quenched prenylated peptide cleavage fluorescence. calls only. 0.27% of 290,000 active;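 active means fall in fluorescence gain of 50% or more versus controls, with final raw signal at or below 3038400; inconclusive means same 50% fall but final raw signal above 3038400; inactive means fall in fluorescence gain under 50%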;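 further: plate controls were neutral control wells for no effect and wells lacking membranes for full effect; tested at 10 µM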
CSC inhib – cancer stem cell inhibition | inhibition, % at 7.5 µM | AID 2717 | cancer stem cell-like cells viability, luminescence | 1.1% of 300,000 active;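 active means mean at 75% or more and at least half the replicates too; inconclusive means mean and replicates disagree; tested in HMLE shEcad cells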;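 further: 0% = median of negative and 100% = median of positive control wells; the first replicate is given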
MT1-MMP act inh – blocks activation of human MT1-MMP | P50281 | HT1080 RFP-PRO-GFP cells, GFP/RFP ratio fluorescence, overnight; percent of plate control window, DMSO zero | GFP/RFP ratio change, % at 20 µM | 0.061% of 360,000 active;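 active means GFP/RFP ratio change of at least 30% with cell ATP level not reduced by more than half and red fluorescence within 50% of control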; further: strong numbers were not always called active
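Assay system: RFP-PRO-GFP reporter HT1080 cells; read-out basis: GFP/RFP fluorescence ratio; benchmarks: DMSO wells and RFP-L50D-GFP cells; doses: 20 µM single dose, 1% DMSO; schedule: overnight cell settling, then overnight compound exposure, 37 °C, 5% CO2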
HIV Env fusion – blocks HIV Env-driven cell-cell fusion. HeLa-JRFL Env/CEM21 cell fusion, luciferase. inhibition, % at 12.3 µM. 1.1% of 360,000 active. AID 651610;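 active means mean replicate inhibition score of at least 50 and every replicate individually at or above 50; inconclusive means only one of the two criteria met; inactive means mean below 50 and not all replicates reaching 50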;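 further: 0% = plate neutral controls and 100% = maraviroc near 300 nM; one replicate is shown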
eIF4H FP inh retest – second read-out of eIF4H FP inh, no call of its own (marks repeat the call); inhibition, %; compound at 20 µM; confirmation average;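 mean of two retest wells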
PABP FP inh retest – also measured in PABP FP inh; calls as there; inhibition, %; compound at 20 µM; confirmation repeats;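 mean of two retest wells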
MT1-MMP act inh RFP – second read-out of MT1-MMP act inh, no call of its own (marks repeat the call); RFP signal change, %; measured here: RFP expression control read;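 0 = vehicle wells; hits needed this value within 50% of zero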
The depositor's hits bear a star; i = inactive; ? = inconclusive; · = no result given; [ ] = remark or other dose. An unsorted share of the library; overall some 3% were active at least once.

SMILES	PABP FP inh	eIF4H FP inh	Yeast UUG start	Rce1 inh	CSC inhib	MT1-MMP act inh	MT1-MMP act inh RFP	HIV Env fusion	others
CC(CCc1ccccc1)NC(=O)COC(=O)c1ccc(S(C)(=O)=O)c([N+](=O)[O-])c1 (configuration not stated)	?	0	·	i	23	2	-4	19
CC(C)N1C(=O)C(=O)N(CC(=O)N2c3ccccc3NC(=O)CC2C)C1=O (configuration not stated)	·	·	-19	·	·	3	2	4
COc1ccc(N2CCN(CC(=O)Nc3sccc3C#N)CC2)cc1	2	21	2	i	2	3	1	-11
c1cc(-c2nnc(-c3ccncc3)o2)ccn1	4	-5	·	i	-18	-1	4	-13
Cc1c(/C=N/NC(=O)CNc2ccccc2)c2ccccn2c1C(=O)c1ccncc1	-3	-10	·	i	4	-3	4	·
COc1cccc(/C=C/C(=O)OCC(=O)c2cc(C)n(CC3CCCO3)c2C)c1OC (configuration not stated)	-13	-4	·	i	58	11	0	14
N#Cc1ccccc1NC(=O)CNc1ccc(Cl)c(C(F)(F)F)c1	8	-8	-22	i	-13	0	-1	0
CCOc1ccc(NC2C=CS(=O)(=O)C2)cc1 (configuration not stated)	30	77	-23	i	28	-3	-1	-54	eIF4H FP inh retest=-9;PABP FP inh retest=5
CCN(CC(=O)NCc1cccs1)C(=O)/C=C/c1cccc(Br)c1	·	·	6	i	-8	2	3	-54
O=C(CCNC(=O)c1ccc([N+](=O)[O-])cc1)Nc1ccc(S(=O)(=O)N2CCOCC2)cc1	·	·	·	i	-6	-5	-3	21
CCOc1ccc(-c2noc(CCC(=O)NCC3CCCO3)n2)cc1OC (configuration not stated)	3	2	-9	i	·	2	3	-2
Cc1c(Nc2scc(-c3ccccc3)[n+]2-c2ccccc2)c(=O)n(-c2ccccc2)n1C	5	2	·	i	15	-18	-14	·
COc1ccc(C=NCCC2(O)CC(C)N(C)CC2C)cc1 (configuration not stated)	-6	15	-15	i	4	-12	-2	20
CC(CCc1ccccc1)NC(=O)C1CCCN(c2nnc(-n3cccc3)s2)C1 (configuration not stated)	0	3	-5	i	-11	0	-6	26
O=C(Oc1ccc(C(=S)N2CCOCC2)cc1)c1ccc([N+](=O)[O-])cc1	11	7	-13	i	-2	-2	-3	-3
COc1cccc(C2/C(=C(/O)c3ccc4c(c3)OCO4)C(=O)C(=O)N2CCN2CCOCC2)c1 (configuration not stated)	6	-2	-20	i	9	-1	0	-14
COCCCNC(=O)CN1CCN(Cc2ccccc2Cl)C1=O	4	-5	-6	i	-8	0	1	-5
C[C@@H]1CN([C@H](C)CO)S(=O)(=O)c2ccc(Br)cc2O[C@@H]1CN(C)C(=O)Nc1ccc(C(F)(F)F)cc1	·	·	-13	·	·	1	-8	-15[16.7 µM]
Cc1ccnc(NC(=S)NC(=O)/C=C/c2ccccc2)c1	-12	-2	-25	i	5	6	-1	·
CCOC(=O)c1c(NC(NC(C)=O)C(Cl)(Cl)Cl)sc(C(C)=O)c1C (configuration not stated)	3	-12	·	i	-3	19	-14	·
Cc1ccccc1/C=N\NC(=O)c1ccccc1-n1cccc1	3	3	-12	i	-3	-3	2	10
Cc1ccc(-c2cc(C(=O)OCn3nnc4ccccc4c3=O)c3ccccc3n2)cc1	7	0	-7	i	1	0	1	·
CC(C)(C)c1ccc(C(=O)N2CCC3(CC2)NCCc2[nH]cnc23)cc1	·	·	-17	i	4	-1	-2	-2
O=C(CN1CCN(c2ccc(O)cc2)CC1)NC(c1ccccc1)c1ccccc1	-6	5	-16	·	69	-1	2	7
O=C(COC(=O)C1CCN(c2ccc(C(F)(F)F)cn2)CC1)c1ccccc1Cl	·	·	-10	i	-6	6	5	-2
O=c1[nH]c2ccccc2nc1NCc1ccccc1	-3	6	-18	i	6	2	4	15
COc1cc(C(c2c(C)[nH][nH]c2=O)c2c(C)[nH][nH]c2=O)ccc1OS(=O)(=O)c1ccccc1	-10	17	-14	i	-7	-3	-1	12
COCCN(CCOC)S(=O)(=O)c1ccc(C(=O)Nc2nnc(C3CC3)o2)cc1	7	-11	-24	·	·	-2	-2	11
Cc1ccn2c(c1)nc(=S)n2C(=O)c1ccccc1	20	5	·	i	2	-3	-2	-148
OCCCNCc1ccc(Cl)cc1Cl	7	-8	·	i	-14	-1	7	-38

As a short view, some entries already given:
SMILES	PABP FP inh	eIF4H FP inh	Yeast UUG start	Rce1 inh	CSC inhib	MT1-MMP act inh	MT1-MMP act inh RFP	HIV Env fusion	others
Cc1c(Nc2scc(-c3ccccc3)[n+]2-c2ccccc2)c(=O)n(-c2ccccc2)n1C	5	2	·	i	15	-18	-14	·
COc1ccc(C=NCCC2(O)CC(C)N(C)CC2C)cc1 (configuration not stated)	-6	15	-15	i	4	-12	-2	20
CC(CCc1ccccc1)NC(=O)C1CCCN(c2nnc(-n3cccc3)s2)C1 (configuration not stated)	0	3	-5	i	-11	0	-6	26
O=C(Oc1ccc(C(=S)N2CCOCC2)cc1)c1ccc([N+](=O)[O-])cc1	11	7	-13	i	-2	-2	-3	-3
COc1cccc(C2/C(=C(/O)c3ccc4c(c3)OCO4)C(=O)C(=O)N2CCN2CCOCC2)c1 (configuration not stated)	6	-2	-20	i	9	-1	0	-14
COCCCNC(=O)CN1CCN(Cc2ccccc2Cl)C1=O	4	-5	-6	i	-8	0	1	-5
C[C@@H]1CN([C@H](C)CO)S(=O)(=O)c2ccc(Br)cc2O[C@@H]1CN(C)C(=O)Nc1ccc(C(F)(F)F)cc1	·	·	-13	·	·	1	-8	-15[16.7 µM]
Cc1ccnc(NC(=S)NC(=O)/C=C/c2ccccc2)c1	-12	-2	-25	i	5	6	-1	·
CCOC(=O)c1c(NC(NC(C)=O)C(Cl)(Cl)Cl)sc(C(C)=O)c1C (configuration not stated)	3	-12	·	i	-3	19	-14	·
Cc1ccccc1/C=N\NC(=O)c1ccccc1-n1cccc1	3	3	-12	i	-3	-3	2	10
Cc1ccc(-c2cc(C(=O)OCn3nnc4ccccc4c3=O)c3ccccc3n2)cc1	7	0	-7	i	1	0	1	·
CC(C)(C)c1ccc(C(=O)N2CCC3(CC2)NCCc2[nH]cnc23)cc1	·	·	-17	i	4	-1	-2	-2
O=C(CN1CCN(c2ccc(O)cc2)CC1)NC(c1ccccc1)c1ccccc1	-6	5	-16	·	69	-1	2	7
O=C(COC(=O)C1CCN(c2ccc(C(F)(F)F)cn2)CC1)c1ccccc1Cl	·	·	-10	i	-6	6	5	-2
O=c1[nH]c2ccccc2nc1NCc1ccccc1	-3	6	-18	i	6	2	4	15
COc1cc(C(c2c(C)[nH][nH]c2=O)c2c(C)[nH][nH]c2=O)ccc1OS(=O)(=O)c1ccccc1	-10	17	-14	i	-7	-3	-1	12
COCCN(CCOC)S(=O)(=O)c1ccc(C(=O)Nc2nnc(C3CC3)o2)cc1	7	-11	-24	·	·	-2	-2	11
Cc1ccn2c(c1)nc(=S)n2C(=O)c1ccccc1	20	5	·	i	2	-3	-2	-148
OCCCNCc1ccc(Cl)cc1Cl	7	-8	·	i	-14	-1	7	-38

(cont.)
SMILES	PABP FP inh	eIF4H FP inh	Yeast UUG start	Rce1 inh	CSC inhib	MT1-MMP act inh	MT1-MMP act inh RFP	HIV Env fusion	others
Cc1cc2ncn(C(=O)N3CCC(C)CC3)c2cc1C	-8	0	-26	i	-9	3	-2	·
O=C(Cc1ccccc1F)NCC1(N2CCOCC2)CCCCC1	-15	-12	·	i	-6	-6	1	13
Cc1cccc(N2CCN(C(=O)C3CCN(S(=O)(=O)N4CCOCC4)CC3)CC2)c1C	-12	6	·	i	8	4	-10	24
CC1=CC(C)(C)N2C(=O)C3(NCCc4c3[nH]c3ccccc43)c3cc(C)cc1c32 (configuration not stated)	-5	-3	1	i	31	-14	-11	17
COc1cc(C2Nc3ccc4ccccc4c3C3=C2C(=O)CC(C)(C)C3)ccc1OC(C)C(=O)O (configuration not stated)	2	12	0	?	-12	-6	1	12
Cn1cc(C(=O)N/N=C/C(Br)=C/c2ccccc2)ccc1=O	0	-2	·	i	32	-3	-10	-5
N#Cc1cc(Sc2ccccn2)c(Sc2ccccn2)cc1C#N	-3	-6	-16	i	-4	-12	-1	28
Cc1cccc(NC(=S)N(Cc2cccs2)Cc2cc3cc(C)cc(C)c3[nH]c2=O)c1	8	0	·	i	29	-20	-21	-9
Cc1ccccc1NC1=NC(=S)N(c2ccccc2)C12CCOC(C)(C)C2 (configuration not stated)	-7	7	-22	i	-6	-1	-3	-46
Cc1ccccc1CSCCNC(=O)c1ccc(N(C)S(=O)(=O)c2ccccc2)cc1	0	-7	4	i	33	8	3	-23
CC(=O)c1cccc(NC(=O)/C=C/c2ccc([N+](=O)[O-])s2)c1	-1	-1	·	i	·	-100	-26	-395
Cc1cc(OCC(=O)N(C)c2ccccc2)cc2c1C(=O)CC(C)(C)O2	3	-1	9	·	-11	0	-7	-8
CC(=O)c1sc(NC(=O)CN2C(=O)C3CC=CCC3C2=O)nc1-c1ccccc1 (configuration not stated)	·	·	0	i	5	-2	1	2
Cc1ccc(S(=O)(=O)CCC(=O)OCC(=O)c2c(N)n(CC(C)C)c(=O)n(C)c2=O)cc1	4	-2	-16	i	1	2	-12	·
CCn1c(CNC(=O)c2ccccc2F)nnc1SCCOc1ccccc1	6	2	-16	i	-10	2	4	-13
NC(=O)NC(=O)CC1S/C(=N/N=C2/NC(=O)CS2)NC1=O (configuration not stated)	-17	12	·	i	-14	-1	1	1
COc1ccc(S(=O)(=O)Cc2ccc(C(=O)NCCc3ccc(S(N)(=O)=O)cc3)o2)cc1	4	-3	-10	i	-9	11	10	-13
Cc1cc(OCC(=O)N2CCOCC2)ccc1NC(=O)c1ccccc1C	0	-6	-11	i	0	-5	-2	-11
Cc1cc(C)cc(NS(=O)(=O)c2ccc(-c3cnc(C4CC4)o3)cc2)c1	-13	-3	2	i	·	5	-13	-33
CC(=O)Nc1ccc(NC(=O)c2ccc3sc([C@H]4C[C@H](O)[C@@H](CO)O4)nc3c2)cc1	·	·	-39	·	·	1	4	-5
CNS(=O)(=O)c1cccc(C(=O)OCC(=O)c2c(N)n(C)c(=O)n(C)c2=O)c1	1	-10	·	i	9	0	1	-5
COc1ccc(/C=N/Nc2cc(C)nc(NS(=O)(=O)c3ccc(C)cc3)n2)cc1	-8	-5	27	i	-2	-6	-3	14
O=C(NCC1CCCO1)c1ccc(COc2ccccc2Br)cc1 (configuration not stated)	5	0	-3	i	19	5	-1	-2
CCOC(=O)CSC1=N/C(=C\c2cccnc2)C(=O)N1c1ccc(OC)cc1	-4	0	·	i	7	1	1	17
CC(Sc1cnccn1)C(=O)O (configuration not stated)	15	-1	·	i	-13	-1	3	14
CC(C)(C)NC(=O)NC(=O)CSc1nnc2ccccn12	-5	2	·	i	-3	3	1	·
